Screening results from PubChem BioAssay.
E coli growth: E. coli growth inhibition, primary screen, OD600; OD600 absorbance (no concentration beside the values); AID 1053175, 2014; 330,000 compounds, 0.21% hits; Escherichia coli growth, 23 h; stronger effect = lower value;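 active = OD600 absorbance below the run mean of sample wells minus 3.6 SD, in any replicate, cut at about 0.56 in these data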;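 note: stock transfer was 300 nL into about 60 µL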
FGF22 binding: binders of human FGF22 protein, primary screen, FGF22 synaptogenesis inhibitor project, biophysical, thermal shift, single point | calls only at 9.99 µM | 340,000 compounds, 1.5% hits | recombinant FGF22 thermal shift, SYPRO orange fluorescence; percent of sucrose octasulfate shift, DMSO zero | Fibroblast growth factor 22 (Homo sapiens), Q9HCT0;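 active = melting point raised past a set limit in the mean and every replicate; inconclusive = no clear call; three in four hits are not shown here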
Target sequence (Q9HCT0 whole entry, looked up): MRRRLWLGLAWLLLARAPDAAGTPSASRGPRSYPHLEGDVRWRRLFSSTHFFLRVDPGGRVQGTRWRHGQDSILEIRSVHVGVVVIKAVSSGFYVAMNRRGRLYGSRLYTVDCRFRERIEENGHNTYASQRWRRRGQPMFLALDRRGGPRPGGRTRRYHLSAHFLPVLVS
Ecoli rRNA inh: reduced GFP signal of wild-type E. coli, primary screen, bacterial rRNA inhibitor project, GFP/RFP fluorescence, OD600, single point; E. coli WT GFP vs humanized-ribosome RFP mutants, 24 h; stronger effect = lower value; DMSO median 0, no signal -100; 350,000 compounds, 1.6% hits; AID 720706, 2013; GFP signal change (wild-type ribosome), % (no concentration beside the values);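 active = significant combined selectivity score with lowered wild-type GFP, culture density cut under 30%, mutant RFP and density less affected; inactive = any of these conditions unmet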; note: one replicate is shown; some compounds called inactive have numbers as strong as hits
AF4-AF9 inh: inhibitors of AF4 peptide binding to AF9, primary screen, biochemical, AlphaScreen, biotin-AF4 peptide, FLAG-AF9, single point; Protein AF-9 (Homo sapiens), P42568; inhibition, % at 10 µM; 350,000 compounds, 0.47% hits; AID 651704, 2012;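 active = every replicate reaching a set inhibition limit, whatever the replicate mean, cut at about 25% in these data; inconclusive = mean inhibition reaches that limit but some replicates miss it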;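 note: 0% = plate neutral control median and 100% = total signal loss; the record names both 10 and 1 µM as test concentration; the first replicate is given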
ALR inh: inhibitors of human ALR sulfhydryl oxidase, primary screen, biochemical, H2O2 detection, HRP-luminol luminescence, single point; purified ALR, DTT oxidation; 290,000 compounds, 3.8% hits; inhibition, % (concentration not given with the values); AID 485317, 2010; FAD-linked sulfhydryl oxidase ALR (Homo sapiens), P55789;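 active = mean and each replicate at 75% or more; inconclusive = only one of the two met; inactive = neither met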;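 note: stock transfer was 7.5 nL into about 7.5 µL; 0% = neutral wells and 100% = wells with inactivated enzyme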
Target sequence (P55789 whole entry, looked up): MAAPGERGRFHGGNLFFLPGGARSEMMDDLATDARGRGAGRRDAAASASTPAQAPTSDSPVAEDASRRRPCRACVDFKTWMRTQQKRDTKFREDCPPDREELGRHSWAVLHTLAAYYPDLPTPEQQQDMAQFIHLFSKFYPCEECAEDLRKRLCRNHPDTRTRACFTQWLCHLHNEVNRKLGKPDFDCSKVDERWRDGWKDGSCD
Vif TR-FRET: inhibitors of Vif binding to APOBEC3G peptide, primary screen, biochemical, TR-FRET, GST-Vif 1-94, biotin-A3G peptide, dose response retest (AID 1117319); inhibition, %, or IC50 in µM where a hit was titrated; 260,000 compounds, 0.57% hits; TR-FRET GST-Vif / biotin-A3G peptide binding; higher % means a stronger effect; test concentration not given here; strong numbers were not always called active;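 active = above the screen mean plus three standard deviations and confirmed in dose response; inconclusive = results disagree or hit not tested in dose response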;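 note: Vif residues 1-94 fused to GST binding biotinylated APOBEC3G peptide 110-148; 0% = full assay without inhibitor and 100% = GST in place of GST-Vif; retest series ran down from 100 µM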
HNF4A DNA FP: change in binding of human HNF4A to DNA, primary screen, biochemical, fluorescence polarization, FITC-DNA; 1 h; activity change, % at 10 µM; 360,000 compounds, 0.3% hits; in the data active = activity change above about 30%, passing the limit was not always enough;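 note: controls were the assay level and a saturating level of protein; the project sought stronger binding though the title names inhibitors; some compounds called inactive have numbers as strong as hits; positive values seem to mean higher polarization but the record does not say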
Target sequence (P41235 whole entry, looked up): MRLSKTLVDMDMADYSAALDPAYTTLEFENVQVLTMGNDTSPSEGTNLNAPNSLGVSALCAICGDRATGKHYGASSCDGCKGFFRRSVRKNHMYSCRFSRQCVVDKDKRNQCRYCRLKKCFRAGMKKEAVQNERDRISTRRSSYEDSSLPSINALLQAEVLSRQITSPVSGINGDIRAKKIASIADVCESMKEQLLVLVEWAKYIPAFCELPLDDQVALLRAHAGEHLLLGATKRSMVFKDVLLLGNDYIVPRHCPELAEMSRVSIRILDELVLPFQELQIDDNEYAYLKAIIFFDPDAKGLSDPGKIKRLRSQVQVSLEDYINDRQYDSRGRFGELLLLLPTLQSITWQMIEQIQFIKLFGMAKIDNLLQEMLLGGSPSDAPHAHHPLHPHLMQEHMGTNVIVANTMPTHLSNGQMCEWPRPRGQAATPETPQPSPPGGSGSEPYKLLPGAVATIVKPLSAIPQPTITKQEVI
Ecoli rRNA inh OD600: second read-out of Ecoli rRNA inh, no call of its own (marks repeat the call); OD600 change, %; measured here: OD600 growth;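 optical density of the mix in the first replicate; 0 = DMSO median and -100 = no signal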
Ecoli rRNA inh RFP: recorded beside Ecoli rRNA inh, whose call it bears; RFP signal change, %; measured here: RFP humanized mutant strains;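 first replicate; 0 = DMSO median and -100 = no signal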
An asterisk follows results filed as active; i = inactive; ? = inconclusive; · = not tested or not shown; & = joins results of further samples. These rows are one share of the data; the hit share may differ from the screen's.

Short forms – A = E coli growth; B = FGF22 binding; C = Ecoli rRNA inh; D = Ecoli rRNA inh OD600; E = Ecoli rRNA inh RFP; F = AF4-AF9 inh; G = ALR inh; H = Vif TR-FRET; I = HNF4A DNA FP
O=C(Nc1ccc(F)cc1)C1CCN(C(=O)c2ccc(F)cc2)CC1
  A = 0.68	B = i	C = ·	D = ·	E = ·	F = -0.3	G = 2	H = ·	I = -3.6

CCCC(=O)Nc1ccc(NC(=O)c2ccco2)c(OC)c1
  A = 0.68	B = i	C = 8	D = 7	E = 1.5	F = 1.1	G = 1	H = 6%	I = 1.0

CCOc1ccc(NC(=O)CN(C)C(=O)c2sc3ccccc3c2Cl)cc1OCC
  A = 0.69	B = i	C = -29*	D = -23*	E = 1.8*	F = 0.5	G = -11	H = 4%	I = -2.8

COc1ccc(NC(=O)c2ccncc2)cc1S(=O)(=O)N1CCCCC1
  A = ·	B = i	C = 3	D = 3	E = 0.6	F = 4.1	G = ·	H = -1%	I = -2.6

CC1CCN(S(=O)(=O)CCNC(=O)c2ccccc2)CC1
  A = ·	B = i	C = 1	D = -2	E = -2.9	F = -1.0	G = 12	H = ·	I = -1.2

COc1ccc2c(c1)c(CC(=O)NCc1cc([N+](=O)[O-])ccc1O)c(C)n2C(=O)c1ccc(Cl)cc1
  A = 0.72	B = i	C = 0	D = 7	E = -0.3	F = -0.6	G = -10	H = ·	I = -5.5

C[C@H](NC(=O)C[C@H]1CC[C@H]2[C@@H](COC[C@H](O)CN2Cc2cc(F)ccc2F)O1)c1ccccc1
  A = ·	B = i	C = 0	D = -9	E = -0.5	F = 0.1	G = ·	H = ·	I = ·

Cc1nnc(NC(=O)c2cc(-c3ccco3)nc3ccccc23)s1
  A = ·	B = i	C = -7	D = -6	E = -1.6	F = 5.6	G = 0	H = ·	I = -21

O=C(CSc1nc2ccccc2c(=O)n1CCCO)NCc1ccccc1
  A = 0.69	B = ·	C = ·	D = ·	E = ·	F = ·	G = -8	H = -6%	I = 3.8

Cc1ccc(CN2[C@@H](CC3CCCCC3)COCCS2(=O)=O)cc1
  A = ·	B = i	C = 4	D = 12	E = 4.5	F = -3.8	G = 0	H = ·	I = -1.1

CCC(=O)N1C[C@@H](C)[C@H](OC)CN(C)C(=O)c2cc(NC(=O)Nc3ccc(Cl)cc3)ccc2OC[C@H]1C
  A = ·	B = i	C = -8	D = -32	E = -1.4	F = 2.0	G = ·	H = ·	I = ·

COc1ccc(NC(=O)N(C)C[C@H]2Oc3c(NC(=O)NC4CCCCC4)cccc3C(=O)N([C@H](C)CO)C[C@@H]2C)cc1
  A = 0.72	B = i	C = 1&9	D = -3&7	E = -1.2&2.8	F = -2.0&0.0	G = ·	H = -6%	I = 1.6

O=C(COC(=O)c1ccc(S(=O)(=O)N2CCOCC2)cc1)Nc1nc(-c2ccccc2)cs1
  A = 0.75	B = ·	C = ·	D = ·	E = ·	F = ·	G = 18	H = -3%	I = -0.5

Cc1ccc(S(=O)(=O)N(CCC(=O)NCC(c2ccccc2)N(C)C)c2ccccc2)cc1 (stereo not drawn)
  A = 0.66	B = i	C = 6	D = -6	E = -0.9	F = 3.5	G = ·	H = ·	I = 2.0

O=C(NCc1ccccn1)Nc1ccc(F)c(Cl)c1
  A = 0.71	B = i	C = -4	D = -3	E = -0.2	F = -1.1	G = -3	H = -2%	I = -1.8

COc1ccc(C(=O)NNC2=NCCCCC2)cc1
  A = 0.62	B = i	C = 2	D = -3	E = -7.9	F = -2.0	G = 54	H = -3%	I = -1.1

CCC1(C)Cc2ccccc2-c2nc(SCC(N)=O)[nH]c(=O)c21 (stereo not drawn)
  A = 0.68	B = i	C = -11	D = -14	E = 0.9	F = -10	G = ·	H = -18%	I = 5.4

NC(=O)C1(N2CCCCC2)CCN(CC(=O)Nc2ccccc2Sc2ccccc2)CC1
  A = 0.7	B = i	C = -29	D = -36	E = 8.9	F = 12	G = ?	H = 4%	I = 1.2

CN1C(=O)c2cc(NC(=O)C3CCCC3)ccc2OC[C@H]2O[C@@H](CC(=O)NCC3CC3)CC[C@@H]21
  A = ·	B = i	C = -2	D = 4	E = -0.7	F = -1.3	G = ·	H = ·	I = ·

CC(=O)OCCn1c(C)[n+](CCOC(C)=O)c2cc(Cl)c(Cl)cc21
  A = 0.66	B = i	C = 11	D = 0	E = 2.6	F = -0.6	G = 1	H = -6%	I = -1.6

CC(C)c1ccc(-c2nc3c([nH]2)c(=O)n(C)c(=O)n3C)cc1
  A = 0.79	B = ·	C = ·	D = ·	E = ·	F = ·	G = 2	H = ?	I = -0.5

COC(=O)c1c(NC(=O)CS(=O)(=O)c2ccccc2)sc(C)c1C
  A = 0.7	B = i	C = -5	D = 1	E = 1.8	F = 2.3	G = ·	H = -2%	I = 1.4

CCOC(=O)c1c(C)[nH]c(C(=O)COC(=O)/C=C/c2ccc3c(c2)OCO3)c1C
  A = 0.68	B = ·	C = ·	D = ·	E = ·	F = ·	G = -1	H = ·	I = 2.7

CCNC(=O)C(=O)NCC(c1ccc2c(c1)OCO2)N1CCOCC1 (stereo not drawn)
  A = 0.66	B = i	C = 6	D = 5	E = -0.5	F = -6.6	G = -2	H = 5%	I = 1.1

Cc1c(NS(=O)(=O)c2cc(C(=O)NCc3cccnc3)cc(Cl)c2Cl)c(=O)n(-c2ccccc2)n1C
  A = 0.71	B = ·	C = 9	D = -3	E = -0.3	F = -4.6	G = ·	H = -5%	I = 2.8

CCOC(=O)C1C(=O)C(=O)N(C(C)C)C1C(=O)OCC (stereo not drawn)
  A = 0.67	B = i	C = 1	D = 13	E = -2.4	F = -1.7	G = ·	H = 7%	I = 1.5

NC(COCc1ccccc1)c1csc(Nc2nccc(C(F)(F)F)n2)n1 (stereo not drawn)
  A = ·	B = i	C = -2	D = -6	E = 11	F = 2.0	G = ·	H = ·	I = 2.4

CCC(=O)N1[C@H](CO)[C@H]2c3ccccc3N(C(=O)CC(F)(F)F)C[C@H]21
  A = ·	B = i	C = 0	D = 1	E = -1.9	F = 1.0	G = ·	H = ·	I = ·

O=C(Nc1ccc2c(c1)CCC2)C1COc2ccccc2O1 (stereo not drawn)
  A = 0.72	B = i	C = -50	D = -75	E = -28	F = -27	G = -1	H = 7%	I = 0.5

O=C(Nc1nc2cc3c(cc2s1)OCO3)c1cccc(N2C(=O)CCC2=O)c1
  A = 0.72	B = ·	C = 3	D = -14	E = -8.4	F = 5.8	G = -6	H = 0%	I = -0.8

CCC1=NC(c2ccc(OC)cc2OC)N(O)C1(C)C (stereo not drawn)
  A = 0.73	B = ·	C = ·	D = ·	E = ·	F = ·	G = 6	H = -3%	I = 0.5

CCCC(=O)Nc1ccc2c(c1)OC[C@@H](C)N(CC1CCOCC1)C[C@@H](C)[C@@H](OC)CN(C)C2=O
  A = ·	B = i	C = 3	D = 3	E = 0.4	F = 0.2	G = ·	H = ·	I = ·

Cn1cc(-c2csc(C(O)c3ccccc3)n2)cn1 (stereo not drawn)
  A = ·	B = i	C = 6	D = 5	E = -1.8	F = -0.1	G = ·	H = ·	I = -2.4

O=C(CSc1nnc(-c2cccc(S(=O)(=O)N3CCCC3)c2)n1-c1ccccc1)Nc1cccc(C(=O)O)c1
  A = 0.72	B = i	C = 11	D = 11	E = -2.6	F = -2.0	G = 0	H = 9%	I = -1.6

Cn1c(=O)c2c(nc(SCCNS(=O)(=O)c3ccccc3)n2C)n(C)c1=O
  A = 0.65	B = ·	C = ·	D = ·	E = ·	F = ·	G = -10	H = 1%	I = 1.5

CC(C)Cn1nc(NS(=O)(=O)c2ccccc2)c2cc3ccccc3nc21
  A = 0.75	B = ·	C = ·	D = ·	E = ·	F = ·	G = -6	H = -1%	I = 0.9

CN(CC1CCOCC1)C(=O)CC1C(=O)NCCN1CC1CCCCC1 (stereo not drawn)
  A = 0.68	B = i	C = 4	D = 9	E = 1.5	F = -1.9	G = -14	H = 1%	I = -3.1

Cc1ccc(S(=O)(=O)N(C)C[C@@H]2OCCCC[C@@H](C)Oc3ccc(NC(=O)Nc4cccc5ccccc45)cc3C(=O)N([C@H](C)CO)C[C@H]2C)cc1
  A = ·	B = i	C = -4	D = 2	E = -2.3	F = -1.1	G = ·	H = ·	I = ·

COc1ccc(S(=O)(=O)N2CCCC(C(=O)Nc3ccc(OC)c(OC)c3)C2)cc1 (stereo not drawn)
  A = 0.67	B = ·	C = ·	D = ·	E = ·	F = ·	G = -3	H = -2%	I = 2.6

COc1ccc(CNC(=O)Cn2nc(C)n3cccc3c2=O)cc1
  A = 0.65	B = i	C = 2	D = 10	E = 0.7	F = -1.4	G = -11	H = ·	I = 1.5

CCOc1ccc(CCNC(=O)CCC(=O)N2CCSc3ccccc32)cc1OCC
  A = 0.71	B = i	C = -10	D = -14	E = -0.6	F = 1.0	G = ·	H = ·	I = 3.5

Cc1[nH]c2ccccc2c1CCN(Cc1cccs1)C(=S)NC(C)(C)C
  A = 0.74	B = i	C = -5	D = -2	E = 2.5	F = 2.4	G = -2	H = 6%	I = 2.0

Cc1cc(C)c(C)c(S(=O)(=O)NCCN2CCOCC2)c1C
  A = 0.71	B = i	C = 10	D = 17	E = 3.7	F = -25	G = 2	H = ·	I = 1.6

CC(=O)NS(=O)(=O)c1ccc(NC(=O)CSc2ccc(C)cc2)cc1
  A = 0.67	B = i	C = 10	D = 9	E = 4.6	F = -9.6	G = ?	H = 2%	I = -0.2

Cc1ccc(OCC(=O)N2N=C(C(F)(F)F)CC2(O)C(C)(C)C)cc1C (stereo not drawn)
  A = 0.66	B = ·	C = ·	D = ·	E = ·	F = ·	G = -9	H = -4%	I = -3.5

Molecules from the list above that have fluorine:
Short forms – A = E coli growth; B = FGF22 binding; C = Ecoli rRNA inh; D = Ecoli rRNA inh OD600; E = Ecoli rRNA inh RFP; F = AF4-AF9 inh; G = ALR inh; H = Vif TR-FRET; I = HNF4A DNA FP
O=C(Nc1ccc(F)cc1)C1CCN(C(=O)c2ccc(F)cc2)CC1
  A = 0.68	B = i	C = ·	D = ·	E = ·	F = -0.3	G = 2	H = ·	I = -3.6

C[C@H](NC(=O)C[C@H]1CC[C@H]2[C@@H](COC[C@H](O)CN2Cc2cc(F)ccc2F)O1)c1ccccc1
  A = ·	B = i	C = 0	D = -9	E = -0.5	F = 0.1	G = ·	H = ·	I = ·

O=C(NCc1ccccn1)Nc1ccc(F)c(Cl)c1
  A = 0.71	B = i	C = -4	D = -3	E = -0.2	F = -1.1	G = -3	H = -2%	I = -1.8

NC(COCc1ccccc1)c1csc(Nc2nccc(C(F)(F)F)n2)n1 (stereo not drawn)
  A = ·	B = i	C = -2	D = -6	E = 11	F = 2.0	G = ·	H = ·	I = 2.4

CCC(=O)N1[C@H](CO)[C@H]2c3ccccc3N(C(=O)CC(F)(F)F)C[C@H]21
  A = ·	B = i	C = 0	D = 1	E = -1.9	F = 1.0	G = ·	H = ·	I = ·

Cc1ccc(OCC(=O)N2N=C(C(F)(F)F)CC2(O)C(C)(C)C)cc1C (stereo not drawn)
  A = 0.66	B = ·	C = ·	D = ·	E = ·	F = ·	G = -9	H = -4%	I = -3.5
